High-throughput results (PubChem BioAssay)
Sa growth inh = S. aureus growth inhibition; S. aureus RN4220 growth, OD600, 20 h, 42 °C; stronger effect = lower value; relative growth, % (test concentration not listed); actives 0.53% (n = 170,000); AID 720641;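 active = growth at 42 °C up to 50% and 20 or more points under that at 30 °C, or under 10% at both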;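 also: 300 nL library stock went into each well; scaled to the means of positive and negative controls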
GIV-Gai inh = GIV-Galpha-i interaction inhibition; percent of control (FP), % (test concentration not listed); actives 0.42% (n = 210,000); P08753; AID 1224905; Galpha-i3/FITC-GIV peptide fluorescence polarization, 90 min; stronger effect = lower value; scaled: aluminum fluoride 0%, vehicle 100%;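 active = replicate mean at 85% of control or lower, very high polarization wells dropped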;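 also: wells of about 15 µL received 100 nL stock; the first replicate is given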
Target sequence (P08753 whole entry, looked up): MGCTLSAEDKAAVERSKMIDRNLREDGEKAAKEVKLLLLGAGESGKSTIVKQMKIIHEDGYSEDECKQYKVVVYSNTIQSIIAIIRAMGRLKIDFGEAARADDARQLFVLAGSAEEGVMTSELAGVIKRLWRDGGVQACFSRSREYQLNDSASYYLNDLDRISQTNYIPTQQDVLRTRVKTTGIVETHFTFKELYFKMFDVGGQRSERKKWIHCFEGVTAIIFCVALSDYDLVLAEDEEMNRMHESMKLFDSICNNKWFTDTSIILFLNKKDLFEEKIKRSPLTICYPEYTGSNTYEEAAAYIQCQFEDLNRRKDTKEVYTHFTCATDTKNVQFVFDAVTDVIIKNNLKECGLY
HCMV UL50-53 inh = cytomegalovirus nuclear egress complex inhibition; HTRF UL50-UL53 interaction, normalized percent inhibition; inhibition, % (test concentration not listed); actives 0.15% (n = 190,000); AID 1918969;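 active = both replicates at 50% or more, plus weaker picks with an unusually low signal ratio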;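 also: stock transfer was 100 nL into about 20 µL; 0% = negative control wells and 100% = wells with untagged competitor protein; inactives centre near -12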
Sa growth inh second temp = further read-out of Sa growth inh, marked with its call; relative growth, %; measured here: growth at 30 °C;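 optical density after 20 h as mean of two plates; 100% = untreated growth and lower means inhibition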
Active calls of the source: *; . = not tested or not shown; & = joins results of further samples.

SMILES | Sa growth inh | Sa growth inh second temp | GIV-Gai inh | HCMV UL50-53 inh
CCC1CCC(C(=O)NC(C(=O)NCCN(CC(C)C)CC(C)C)C(C)C)CC1 (centres undefined) | 88 | 98 | 111 | -6
CC(=O)NS(=O)(=O)c1ccc(NC(=O)c2ccco2)cc1 | 95 | 91 | 99 | -6
Cc1ccc(SCc2[nH]nc3c2C(c2ccoc2)C(C#N)=C(N)O3)cc1 (centres undefined) | 105 | 108 | 105 | 19
CCn1c(N)c(C(=O)CSc2ncccn2)c(=O)[nH]c1=O | 74 | 90 | . | -18
N#CC(C#N)=Cc1cn(Cc2ccccc2)c2ccccc12 | 91 | 84 | 100 | 2
Cc1ccccc1NC(=O)C1C(c2cccs2)C(C#N)=C(SCC(N)=O)NC1(C)O (centres undefined) | 93 | 76 | 102 | -7
COc1ccc(-n2c(SCc3nc(-c4ccc(C)cc4)no3)nnc2-c2ccncc2)cc1 | 108 | 91 | 106 | -5
CCn1cc(C2=NOC(C(=O)NC3CCCC3)C2)c(C)n1 (centres undefined) | 101 | 91 | 97 | -3
O=C(NCCc1ccc(Cl)cc1)c1ccc(Cn2c(=O)c3cccn3c3cccnc32)cc1 | 148 | 69 | 104 | .
CN(C)c1ccc(-n2nnnc2SCc2cc(F)cc(F)c2)cc1 | 98 | 94 | 96 | -16
CC(C)NC(=O)/C(C#N)=C/c1ccc(-c2ccc(S(=O)(=O)N3CCOCC3)cc2)o1 | 93 | 89 | . | -84
CCN(C(=O)C1CCC(CNS(=O)(=O)c2cccc3nsnc23)CC1)c1ccc(C)c(C)c1 (centres undefined) | 94 | 94 | 104 | 7
COc1ccc(CCN2C(=O)/C(=C\c3ccccc3C(=O)O)SC2=S)cc1OC | 41 | 31 | 103 | -4
CCc1ccc(OCC(=O)Nc2ccc(S(N)(=O)=O)cc2)cc1 | 81 | 84 | 100 | -31
COC(=O)C1=C(N)Oc2ccccc2C1C(C#N)C#N (centres undefined) | 92 | 82 | 103 | -54
N#C/C(=C\N1CCCC1)S(=O)(=O)c1ccc(Cl)cc1 | 93 | 57 | 108 | -28
O=c1oc2ccccc2c(O)c1NS(=O)(=O)c1ccc2c(c1)CCCC2 | 74 | 61 | 102 | .
CCc1ccc(CNC(=O)C2CCN(c3nc4ccccc4nc3C(F)(F)F)CC2)cc1 | 86 | 97 | 104 | .
Cc1cc(NC(=O)C2CCCCC2C(=O)O)no1 (centres undefined) | 102 | 83 | 100 | .
CCOc1ccc(CC(=O)NCC(c2cccs2)S(=O)(=O)c2ccc(F)c(C)c2)cc1 (centres undefined) | 95 | 91 | 98 | .
Cc1cc(C)c2c(NCc3ccc(N4CCCCC4)cc3)n[nH]c2n1 | 105 | 80 | 101 | 4
Cc1noc(C)c1S(=O)(=O)NC1CCCCCC1 | 78 | 79 | 99 | .
CC(NC(=O)CCN1CCOCC1)C1COc2ccccc2O1 (centres undefined) | 90 | 83 | 100 | -24
Cn1c(=O)c2c(nc(CN3CCN(c4ccccc4F)CC3)n2Cc2ccc(F)cc2)n(C)c1=O | 97 | 94 | 106 | -31
Cc1ccsc1CCN1C(=O)N(c2ccccc2)C(=O)C1CC(=O)Nc1ccc(Cl)cc1 (centres undefined) | 98 | 71 | 101 | -14

Next results follow.
SMILES | Sa growth inh | Sa growth inh second temp | GIV-Gai inh | HCMV UL50-53 inh
COc1cc(C2Nc3ccc(C(=O)c4ccccc4)cc3NC3=C2C(=O)CCC3)cc(OC)c1OC (centres undefined) | . | . | 104 | -34
Cc1cc(-c2csc(NC(=O)CN3C(=O)C4C5C=CC(C5)C4C3=O)n2)c(C)n1-c1ccccc1 (centres undefined) | 94 | 87 | . | -3
CCN1CCN(C(=O)c2ccc(S(=O)(=O)Nc3ccc(OC)cc3)cc2)CC1 | 99 | 97 | . | 10
COc1ccc(/C=C2\N=C(c3ccc(Cl)c([N+](=O)[O-])c3)OC2=O)cc1OC(C)=O | . | . | 99 | -36
CCC(=O)Nc1c(C(=O)N(CCN(C)C)Cc2ccco2)oc2ccccc12 | 109 | 85 | 99 | -37
Cc1ccc(-c2cn3nc(N4CCCC(C(=O)Nc5cc(C)cc(C)c5)C4)sc3n2)cc1 (centres undefined) | 136 | 82 | 108 | -22
COC(=O)c1cc(COC(=O)c2ccc(OC(F)(F)F)cc2)oc1C | 95 | 98 | . | -34
CCOc1ccc(C2C(C(=O)Nc3cccc(C(F)(F)F)c3)=C(C)NC3=C2C(=O)CCC3)cc1 (centres undefined) | . | . | 99 | 11
O=C(CSc1nc2ccccc2[nH]1)Nc1ccc(OC(F)(F)F)cc1 | 88 | 88 | . | -17
CSc1cc(C(C)(C)C)nn1C(=O)Nc1ccccc1 | 92 | 86 | 103 | -17
Cc1csc(NCc2cccnc2)[n+]1C | 96 | 82 | 101 | -7
COc1ccc(CNCCCSc2nnnn2C)c(OC)c1 | 100 | 82 | 105 | -43
Cc1cc(C)cc(NCC(O)Cn2nnnc2-c2ccccc2)c1 (centres undefined) | . | . | 98 | -17
CCOc1ccc2c(c1)c(=O)c(C(=O)c1ccc(CC)cc1)cn2CC(=O)Nc1cccc(Cl)c1 | 87 | 105 | 110 | -2
Cn1ncc2c(Nc3cccc(F)c3)ncnc21 | 92 | 97 | 108&95 | .
CCc1cccc(-n2nnc(S(=O)(=O)c3ccc(OC)cc3)c2C)c1 | 109 | 89 | 102 | -32
COc1ccc(CCCc2nnc(SCC(=O)Nc3ccc(C)cc3)o2)cc1C | 93 | 88 | 100 | .
Cc1ccc(-n2cnnc2)cc1 | 95 | 99 | . | 15
Cc1nc2nc(N(C)S(=O)(=O)c3ccc(Cl)cc3)nn2c(C)c1Cl | . | . | 103 | 8
NC(=O)COC(=O)/C=C/c1cccs1 | 119 | 90 | . | -60
O=C(Cn1cnc2ccc(Cl)cc2c1=O)c1ccc[nH]1 | 74 | 100 | . | -10
Cc1oc(C(C)(C)C)cc1C(=O)Nc1cccc(C(=O)O)c1 | 96 | 102 | 108 | 0
Cc1c(C(=O)NCc2ccc3c(c2)OCO3)cccc1-n1nnc2cccnc21 | . | . | 116 | -19
O=S(=O)(NCC(c1ccco1)N1CCOCC1)c1ccc(F)cc1 (centres undefined) | 108 | 93 | 97 | .
O=C(Nc1ccc(S(=O)(=O)N2CCCCC2)cc1)C(F)(F)F | 94 | 105 | 102 | -10

Four entries from above, reformatted:
CSc1cc(C(C)(C)C)nn1C(=O)Nc1ccccc1
- Sa growth inh: 92
- Sa growth inh second temp: 86
- GIV-Gai inh: 103
- HCMV UL50-53 inh: -17

Cc1csc(NCc2cccnc2)[n+]1C
- Sa growth inh: 96
- Sa growth inh second temp: 82
- GIV-Gai inh: 101
- HCMV UL50-53 inh: -7

COc1ccc(CNCCCSc2nnnn2C)c(OC)c1
- Sa growth inh: 100
- Sa growth inh second temp: 82
- GIV-Gai inh: 105
- HCMV UL50-53 inh: -43

Cc1cc(C)cc(NCC(O)Cn2nnnc2-c2ccccc2)c1 (centres undefined)
- Sa growth inh: .
- Sa growth inh second temp: .
- GIV-Gai inh: 98
- HCMV UL50-53 inh: -17

Laid out differently: entries from further up.
SMILES: CCc1ccc(CNC(=O)C2CCN(c3nc4ccccc4nc3C(F)(F)F)CC2)cc1
  Sa growth inh: 86	Sa growth inh second temp: 97	GIV-Gai inh: 104	HCMV UL50-53 inh: .
SMILES: Cc1c(C(=O)NCc2ccc3c(c2)OCO3)cccc1-n1nnc2cccnc21
  Sa growth inh: .	Sa growth inh second temp: .	GIV-Gai inh: 116	HCMV UL50-53 inh: -19
SMILES: COc1ccc(CNCCCSc2nnnn2C)c(OC)c1
  Sa growth inh: 100	Sa growth inh second temp: 82	GIV-Gai inh: 105	HCMV UL50-53 inh: -43

Remaining list, next part.
SMILES | Sa growth inh | Sa growth inh second temp | GIV-Gai inh | HCMV UL50-53 inh
Cc1cccc(C)c1NC(=O)NC1(C(=O)N2CCCCC2)CCCCC1 | 113 | 96 | 107 | -5
NS(=O)(=O)c1ccc(NC(=O)c2cc(-c3cccs3)nc3ccccc23)cc1 | 88 | 100 | 110 | 12
Cc1nn(CCCC(=O)Nc2ccccc2C(F)(F)F)c(=O)c2c1sc1ccccc12 | 119 | 86 | 109 | -18
Cc1ccc(-n2nc(C)c3c(C(F)(F)F)cc(-c4cccnc4)nc32)cc1Cl | 96 | 86 | 98 | -19
Cn1cccc1/C=C1\SC(=S)NC1=O | 103 | 28 | 153 | -106
O=C(CSc1nn(-c2ccc(F)cc2)c(=S)s1)N1CCN(C(=O)c2ccco2)CC1 | 89 | 80 | . | -14
CCCCn1c2ccc(F)cc2c2nnc(NN)nc21 | 68 | 26 | 99 | -71
CCN(CC)c1ccc2cc(C(N)=O)c(=Nc3ccc(C(F)(F)F)cc3)oc2c1 | . | . | 107 | -14
N#Cc1c(-c2ccc(Cl)cc2Cl)c(C#N)c(=O)n(N)c1N | 57 | 67 | 97 | -14
O=C(c1cc2c(s1)CCCC2)N1CCN(c2ccccc2)CC1 | 96 | 96 | . | -12
O=C(OCN1C(=O)c2ccccc2C1=O)c1ccc2c(c1)OCCO2 | 104 | 82 | . | -30
CC1=C(C(=O)OC(C)(C)C)C(c2ccc(Br)cc2)n2nnnc2N1 (centres undefined) | . | . | 102 | 2
COc1ccc(C=NC23CC4CC(CC(C4)C2)C3)cc1 | 97 | 85 | . | -4
O=C(Nc1cc(-c2nc3cc(Cl)ccc3o2)ccc1Cl)c1cccs1 | 105 | 88 | 125 | -13
CN(Cc1ccco1)C(=O)c1ccc2c(c1)N(Cc1ccccc1F)C(=O)c1ccccc1S2 | 94 | 99 | 111 | .
OCC1(CO)COC2(CCCCC2)N1 | 99 | 87 | . | -10
CC(C)CN=CC1=C(O)c2ccccc2C1=O | 105 | 89 | 100 | -84
CCNC(=O)CSc1ccc2ccccc2c1 | 89 | 95 | . | -37
CS(=O)(=O)c1ccccc1C(=O)Nc1nccs1 | 88 | 79 | 101 | -45
CCN1CCCC1CNC(=O)C(NC(=O)C1CCC(C)CC1)C(C)C (centres undefined) | 93 | 99 | 112 | 2
CC1(N(O)C=C2C=CC(=O)C=C2)CCCCC1=O (centres undefined) | 100 | 119 | 105 | 4
CC(=O)N(C)Cc1nc2ccccc2[nH]1 | 87 | 86 | 97 | -16
CC(=O)NC1=NC(=O)/C(=C/c2ccc(-c3cc(Cl)ccc3[N+](=O)[O-])o2)S1 | . | . | 111 | -15
CCCN1C(=O)/C(=c2\sc3nc(-c4ccccc4)nn3c2=O)c2ccccc21 | 92 | 88 | 107 | -36
CN(CC(=O)N1CCCC1=O)Cc1ccccc1 | 89 | 100 | 102 | -10

Carrying on.
SMILES | Sa growth inh | Sa growth inh second temp | GIV-Gai inh | HCMV UL50-53 inh
COc1ccc(C2CC(=O)C3=C(C2)Nc2ccccc2NC3c2ccccc2[N+](=O)[O-])cc1OC (centres undefined) | . | . | 104 | -29
Cc1cccc(OCC(=O)Nc2cccc(-c3nc4ncccc4o3)c2)c1 | 78 | 63 | 101 | -9
CCn1c(=O)c2cc(C(=O)NCCc3cc(OC)ccc3OC)sc2c2ccccc21 | 105 | 90 | 98 | -11
CC(C)(C)OC(=O)N1CCC(c2c(C(=O)NCCN3CCCC3)cnn2-c2ccc(Cl)cc2)CC1 | 97 | 88 | 100 | .
O=C1CCCc2nc(N3CCN(c4ccccc4)CC3)ncc21 | 108 | 88 | 104 | 2
C=CCN(CC=C)C(=O)C1CCC(C(=O)N(CC=C)CC=C)CC1 (centres undefined) | 101 | 93 | 99 | 3
Cc1sc2ncn(CC(=O)N3CCC(C)CC3)c(=O)c2c1C | 112 | 69 | 106 | -3
CCOC(=O)c1cccc(Nc2cc(-c3ccccc3)ncn2)c1 | 79 | 51 | 106 | -1
Cc1cc(N2CCC(C)CC2)nc2ccc(NC(=O)c3ccc4c(c3)OCO4)cc12 | 95 | 96 | 107&112 | 22
O=C(COc1ccccc1)NCCc1nc2ccccc2n1Cc1ccccc1 | 100 | 81 | 101 | .
CCOC(=O)c1c(C)n(-c2ccccc2)c2c1cc(OC(=O)c1ccc(F)cc1)c1ccccc12 | . | . | 107 | -6
O=C(Nc1ccncc1)c1cnc2sccn2c1=O | 95 | 98 | 106 | 9
Cc1cc2nc(COc3cc(Cl)ccc3NC(=O)CCC3CCCC3)cc(=O)n2o1 | . | . | 94 | 10
O=S(=O)(c1ccccc1)c1nnn2c1nc(NCc1ccco1)c1sccc12 | 91 | 85 | 102 | 22
CCn1c(/N=C/c2ccc(OC)cc2O)nc2ccccc21 | 95 | 78 | 128 | 2
CC(C)(C)c1ccc(C(=O)NCCn2c(C(F)(F)F)nc3cccnc32)cc1 | . | . | 111 | 4
CCOC(=O)c1sc2ncnc(Oc3ccc(Cl)cc3)c2c1C | . | . | 97 | -10
Oc1ccccc1OCc1ccccc1 | 95 | 77 | 95 | -17
Cc1ccc(CC(=O)NCC(c2ccco2)N(C)C)cc1C (centres undefined) | 84 | 92 | . | -15
Cc1[nH]c(=O)[nH]c(=O)c1S(=O)(=O)NCC1CCCO1 (centres undefined) | 113 | 99 | 100&107 | 2&-16
CCOc1ccccc1C(=O)NCC(c1ccc(N(C)C)cc1)N1CCc2ccccc21 (centres undefined) | 92 | 90 | 102 | .

This is a random part of the collection; about 0.82% have a hit in one of these screens.
